# VDR inhibitor: Inhibitors of the vitamin D receptor (VDR): qHTS; Potency, µM, without a hit: max response, negative = inhibition, most hits filed as inhibitors; Vitamin D3 receptor (Homo sapiens), P11473; hit rate 0.93% among 400,000; VDR-SRC2-3 peptide fluorescence polarization, 2 h; active means well fitted inhibition curve with a large enough effect; inconclusive means small, poorly fitted or top-dose-only effect, or another doubt; inactive means no such curve, though single readings can be large or run the other way; further: series mostly up to about 120 µM
# Target sequence (P11473 whole entry, looked up): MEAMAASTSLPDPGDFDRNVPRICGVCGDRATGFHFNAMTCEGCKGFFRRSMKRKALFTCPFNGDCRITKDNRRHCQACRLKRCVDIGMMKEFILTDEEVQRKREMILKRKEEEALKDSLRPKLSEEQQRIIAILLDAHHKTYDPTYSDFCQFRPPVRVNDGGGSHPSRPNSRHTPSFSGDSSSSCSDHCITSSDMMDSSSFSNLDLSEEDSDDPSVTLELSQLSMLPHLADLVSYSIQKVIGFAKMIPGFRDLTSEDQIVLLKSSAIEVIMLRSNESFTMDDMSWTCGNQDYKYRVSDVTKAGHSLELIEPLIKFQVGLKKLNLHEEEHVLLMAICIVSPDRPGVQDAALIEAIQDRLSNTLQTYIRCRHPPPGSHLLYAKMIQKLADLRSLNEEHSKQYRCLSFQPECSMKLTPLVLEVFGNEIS
#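 Two reagent solutions held at 4 deg C in the dark were dispensed, compounds pinned at 23 nl, and the mixture incubated 2 h at room temperature. Read-out: fluorescence polarization of VDR–SRC2-3 peptide binding.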
# The depositor's hits bear a star; ? = inconclusive; & = joins results of further samples; [ ] = dose if it differs, or a comment. On the % scale 0 is the no-effect control and ±100 the full control effect; potency means the concentration at half of the fitted maximal effect. These rows are one share of the data; rates above refer to the full screens.
SMILES,VDR inhibitor
CC(=O)N1c2ccc(S(=O)(=O)N(C)CC(=O)Nc3ccccc3C)cc2CC1C (centres undefined),-6%
c1ccc(SCc2cn3cccnc3n2)nc1,0%
O=[N+]([O-])c1ccc(S(=O)(=O)Nc2ncccn2)cc1,7%
Cc1ccc(C(=O)Sc2cccccc2=O)cc1,20µM*
COC(=O)Cn1cnc2c(nnn2-c2ccc(OC)cc2)c1=O,4%
S=C(NCCCc1cnc[nH]1)NCCCN(Cc1ccc(Cl)cc1)c1cc(-c2ccccc2)ccn1,-3%
Cc1cc(C)cc(-n2nnc(C(=O)NCc3ccco3)c2N)c1,9%
CSc1nc(N)n(-c2cc(C(F)(F)F)ccn2)n1,-1%
O=S(=O)(Nc1cccnc1)c1cc(Cl)ccc1Cl,-4%
O=S(=O)(c1ccc(F)cc1)c1snnc1-c1ccccc1,-12%
Cc1nn(C)cc1S(=O)(=O)N1CCCCC1C (centres undefined),-4%
O=C(NC1CCCCCCC1)NC1CCCCC1,8%
Cc1cc(C)cc(OCc2ccc(C(=O)O)o2)c1,-7%
O=C1C(=O)N(CC2CCCO2)C(c2ccccc2[N+](=O)[O-])/C1=C(/O)c1ccccc1 (centres undefined),-1%
Cc1cc(C)nc(SC2CCCCC2NS(=O)(=O)c2ccc(Cl)cc2)n1 (centres undefined),-28%
Cc1nccn1-c1c2c(c(C#N)c3nc4ccccc4n13)CCC2,-11%
Cc1nn(CC(=O)NCCc2ccccc2)c(=O)c2nn(-c3ccccc3)c(C)c12,0%
O=C(CSc1nnnn1-c1ccccc1)Nc1ncc(Cc2cccc(Cl)c2Cl)s1,-2%
O=C(Nc1noc2ccccc12)c1cccc(F)c1,10%
CCOC(=O)C1C(=O)NC(c2ccccc2)=NC1c1ccc(F)cc1 (centres undefined),9%
O=C(Cn1c(=O)c2cccn2c2ccc(F)cc21)N1CCN(c2ccccc2)CC1,6%
COCCCn1c(=N)c(S(=O)(=O)c2ccccc2)cc2c(=O)n3cccc(C)c3nc21,-11%
COc1ccccc1NC(=O)CN1CCN(CC(=O)Nc2ccccc2Cl)CC1,-24%
Cc1ccc(Nc2nc(CSc3nnnn3-c3ccccc3)cc(=O)[nH]2)cc1,-2%
CCN(C(=O)COC(=O)CCCc1nc2ccccc2s1)c1c(N)n(Cc2ccccc2)c(=O)[nH]c1=O,-10%
CCN(CC)c1nc2ccccc2n2cnnc12,4%
C#Cc1ccc(C(=O)Nc2cc(C(N)=O)ccc2N2CCOCC2)cc1,7%
C/C(=N\NC(=O)C(=O)Nc1c(C)n(C)n(-c2ccccc2)c1=O)c1ccncc1,-9%
Cc1ccc2oc(=O)c(S(=O)(=O)c3ccc(C(C)(C)C)cc3)cc2c1,3%
COc1ccc(Nc2c3c(nc4ccccc24)CCCC3)cc1OC,-9%
CCN(CC(=O)Nc1c(F)cccc1F)C(=O)CCC(=O)c1ccc(F)cc1,-5%
CCc1nc2ccccc2c(C(=O)OCC(=O)NCc2ccc3c(c2)OCO3)c1C,23%
COc1ccc(C2/C(=C(/O)c3ccccc3)C(=O)C(=O)N2c2ccccn2)cc1OC (centres undefined),-6%
COc1ccc(N(CN2C(=O)c3ccccc3C2=O)C(=O)C(C)C)cc1,-1%
O=C(CN(Cc1ccccc1)C(=O)CCC(=O)Nc1ccccn1)NCc1ccc(F)cc1,2%
CN(C)c1ccc(NC(=S)c2ccc3ccccc3n2)cc1,?
COc1cc(Cl)c(C)cc1NC(=O)CSc1cc(-c2ccccc2)nc(C)n1,24%
CCOC(=O)N1CCC(NC(=O)C2CCN(Cc3nc(-c4ccc(CC)cc4)oc3C)CC2)CC1,-4%
C=CCNC(=O)C1=NN(c2c(F)c(F)cc(F)c2F)C(=O)CC1,-10%
c1ccc(-n2ncc3c(NC4CCCCCC4)ncnc32)cc1,-21%
Cc1ccc2nc(/C(C#N)=C/c3cccc(Br)c3)[nH]c2c1,-7%
Cc1ccc(SCCC(=O)Nc2c(C)n(C)n(-c3ccccc3)c2=O)cc1,-9%
COc1cc(/C=C2/C(=O)NN(c3ccc(C)c(Cl)c3)C2=O)cc([N+](=O)[O-])c1O,?
Cc1ccc(Cl)cc1NS(=O)(=O)c1ccc2oc(=O)ccc2c1,4%
S=C(NCC1CCCO1)N1CCN(c2ccccc2)CC1 (centres undefined),-7%
O=C(CCn1cnc2onc(-c3ccc(F)cc3)c2c1=O)Nc1ccc(F)c(Cl)c1,17%
O=C(O)CCCCCNC(=O)C(=O)C1C(=O)Nc2ccccc21 (centres undefined),-4%
COc1ccccc1C(=O)CC(=O)C(=O)Nc1cccc([N+](=O)[O-])c1C,2%
O=C(NCc1ccccc1)C(c1ccco1)N(C(=O)c1csnn1)c1ccccc1F (centres undefined),4%
CSc1ccccc1OCc1cc(C(=O)NCC(C)(C)N2CCOCC2)no1,1%
COc1ccc(C(=O)N2CCC(C(=O)N3CCN(Cc4ccccc4)CC3)CC2)cc1,-2%
COc1ccc(O)cc1,2%&7%
COC(=O)Cn1c(CCS(=O)(=O)c2ccc(Cl)cc2)nc2ccccc21,-6%
CCc1ccc(-n2c(SC(CC)C(=O)N(CC)CC)nc3n[nH]c(C)c3c2=N)cc1 (centres undefined),-8%
Cc1ccc(C(=O)/C=C/c2cn(CN3CCN(C)CC3)c3ccccc23)cc1,5%
Cc1ccc(-c2nc(S(=O)(=O)c3ccccc3)c(SCC(=O)NC3CCCCC3)o2)cc1,-6%
CCN(CC)C(=O)OCc1c(-c2ccccc2)ncc2ccccc12,-16%
COc1cc(NC(=O)CCc2nnc3ccc(N4CCCC4)nn23)cc(OC)c1OC,-17%
COc1ccccc1N1CCN(C(=O)C(C)N(c2ccccc2)S(C)(=O)=O)CC1 (centres undefined),-19%
COCCn1ccc2c(OCC(=O)NCc3ccccc3)cccc2c1=O,2%
# Going on with the list.
SMILES,VDR inhibitor
COc1ccc(CNCc2cc(OC)ccc2OC)cc1,7%
O=C(CSc1nc2ccccc2nc1N1CCCC1)Nc1ccc(F)cc1,-11%
COc1cc(C(=O)N2CCN(C/C=C/c3ccccc3)CC2)cc(OC)c1OC,-9%
CSCCC(NS(=O)(=O)c1ccc(Cl)cc1)C(=O)OCC(=O)NC1CCCCC1 (centres undefined),5%
CCOC(=O)c1nnn(-c2ccc([N+](=O)[O-])cc2[N+](=O)[O-])c1C,-2%
CCNC(=S)N(CCc1c(C)[nH]c2ccc(Cl)cc12)Cc1ccco1,24%
CC(C)(C)OC(=O)CNC(=O)c1[nH]cnc1C(=O)NC(c1ccccc1)c1ccccc1,-19%
CC(C)(C)c1cc(CCC(=O)NNC(=S)NC(=O)c2ccccc2)cc(C(C)(C)C)c1O,-16%
O=C(NCCc1ccc(Cl)cc1)c1ccc(Br)s1,-19%
N#CC1=C(S)N(c2ccccc2)C2(CCCCC2)NC1=O,35µM*
S=c1[nH]ncn1NCc1cccc(Br)c1,11%
CCN(CC(=O)Nc1c(F)cccc1F)C(=O)C1CC(=O)N(CCc2ccc(OC)c(OC)c2)C1 (centres undefined),-4%

# Three of the entries above in order of their number in VDR inhibitor, ascending:
SMILES,VDR inhibitor
CC(C)(C)OC(=O)CNC(=O)c1[nH]cnc1C(=O)NC(c1ccccc1)c1ccccc1,-19%
COc1cc(C(=O)N2CCN(C/C=C/c3ccccc3)CC2)cc(OC)c1OC,-9%
CSCCC(NS(=O)(=O)c1ccc(Cl)cc1)C(=O)OCC(=O)NC1CCCCC1 (centres undefined),5%

# (cont.)
SMILES,VDR inhibitor
COC(=O)c1ccc(NC(=O)C(C)Oc2ccccc2)cc1 (centres undefined),11%
Cc1nnc(SCC(=O)Nc2cc(S(=O)(=O)N3CCCC3)ccc2Cl)s1,-16%
Cc1ccc(C(C)C)c(O)c1,8%&9%
COc1ccc(N2CCN(S(=O)(=O)CCNC(=O)C(C)Oc3ccccc3)CC2)cc1 (centres undefined),-7%
O=C1c2ccccc2C(=O)C1c1cc2ccccc2cn1,-12%
CC(C)[C@H](NC(=O)c1ccccc1Cl)C(=O)Nc1ccc(S(=O)(=O)Nc2nccs2)cc1,-28%
CC(C)Oc1cccc(-c2cc(C(=O)NC(=S)N(C)c3ccccc3C(=O)O)c3ccccc3n2)c1,-22%
O=C(Nc1cc(-c2nc3cc(Cl)ccc3o2)ccc1Cl)c1cccc2ccccc12,-3%
Cc1ccc(S(=O)(=O)Nc2ccc3c(c2)CC(=O)N([C@H](C)CO)C[C@H](C)[C@H](CN(C)Cc2ccc4c(c2)OCO4)O3)cc1,-15%
Cc1ccccc1NCC(=O)c1ccc(Br)cc1,?
COC(=O)C1=C(C)NC(=O)NC1c1cccc(OC)c1OCc1ccccc1 (centres undefined),3%
Cc1cc(C)c(C)c(OCc2nc(-c3cccnc3)no2)c1,4%
CCOC(=O)N1CCN(Cc2nc3cc(NC(=O)c4ccc([N+](=O)[O-])cc4)ccc3n2C(C)C)CC1,2%
O=C(NC1CCCCCC1)c1cc2n(n1)C(C(F)(F)F)CC(c1ccco1)N2 (centres undefined),7%
Cc1cc(N(C)C)ccc1N=Nc1ccc2ncccc2c1,-9%
CCOCCCn1c(SCC(=O)NCCCOC)nc2c(sc3ccccc32)c1=O,-3%
COc1cc(NC(=S)NCCCN2CCOCC2)c(OC)cc1Cl,16%
O=S(NCc1ccccc1)C12CC3CC(CC(C3)C1)C2 (centres undefined),-15%
O=C(Cn1cc(C(=O)C(F)(F)F)c2cc(Br)ccc21)N1CCOCC1,-4%
Cc1cn(C2CCC(CO)O2)c(=O)[nH]c1=O (centres undefined),?
O=P(O)(O)c1cc(-c2ccccc2)oc1-c1ccccc1,-8%
CCc1ccccc1NC(=O)CSC1=Nc2ccccc2C2=NC(Cc3ccccc3)C(=O)N12 (centres undefined),8%
CCNC(=O)Cn1nc(C)n2c(cc3c(OC)cccc32)c1=O,12%
CCN(CC)c1ccc(C(=O)OCC(=O)N(C)Cc2ccccc2)cc1,-11%
Cc1ccc(C(=O)NCC(C)NC(=O)c2ccc(C)c([N+](=O)[O-])c2)cc1[N+](=O)[O-] (centres undefined),?
COc1ccc(CNC(=O)COc2ccc(OC)cc2)cc1,2%
COc1ccc(C2CC(c3ccccc3Cl)Nc3ncnn32)cc1OC (centres undefined),-2%
COc1cc(/C=N/Nc2ccc([N+](=O)[O-])cn2)cc(OC)c1O,-6%
Cc1nc2ccccc2c2c1C(=O)N(c1cccc(C(=O)O)c1)C2=O,-3%
N=C1c2ccccc2CN1NC(=O)c1cccc(S(=O)(=O)N2CCCCC2)c1,-15%
CC(=O)c1sc2nc(-c3cccs3)ccc2c1N,-3%
C/C(=N\NC(=O)C(C)Sc1ccccc1)c1ccc([N+](=O)[O-])cc1 (centres undefined),-9%
O=C(CCN1C(=O)/C(=C/c2ccccc2F)SC1=S)NC1C=CS(=O)(=O)C1 (centres undefined),8%
O=C(O)CSc1nc2c(c(=O)[nH]1)CCCC2,13%
C/C(=N\O)c1ncc(C(F)(F)F)cc1Cl,-13%
CCc1ccc(NC(=O)Cn2c(=O)c(CNc3ccccc3)cc3cc(OC)c(OC)cc32)cc1,9%
O=C(CCNC(=O)c1ccccc1Cl)NCc1ccncc1,-3%
CCNS(=O)(=O)c1ccc(CCC(=O)NCc2ccccc2)cc1,5%
CN(C)c1ccc(/C=N/N2CCN(c3ccccn3)CC2)cc1,-21%
O=C(c1cccc(F)c1)N1CCC2(CCCN(Cc3cc(C(F)(F)F)cc(C(F)(F)F)c3)C2)CC1,-12%
COc1cc(CN2C(=O)C(NC(=O)c3ccco3)(C(F)(F)F)C3=C2CC(C)(C)CC3=O)cc(OC)c1 (centres undefined),4%
CCCN(C(=O)Cn1cc(S(=O)(=O)N2CCN(c3ccccc3F)CC2)c2ccccc2c1=O)c1cccc(C)c1,-9%
Cc1ccc(C[n+]2cccc(-c3ccccc3)c2)c(C)c1,-5%
COc1cc(O)oc1C=Nc1ccccc1,7%
CCC(=O)N1c2ccccc2CC1C(=O)NCCc1ccccc1C (centres undefined),1%
CCCn1c(NC(=O)c2cccc(C)c2C)nc2ccccc21,1%
COc1ccc(C(=O)Cn2nc(CNc3ccc(Br)cc3)[n+]3c2CCCCC3)cc1,-27%
Cc1cc(C(=O)COC(=O)c2ccc(N)c([N+](=O)[O-])c2)c(C)n1Cc1ccc2c(c1)OCO2,-9%
Cc1c(S(=O)(=O)c2cccc(Cl)c2)nnn1-c1cccc(C(F)(F)F)c1,5%
Cc1ccc(CNC(=O)c2ccc(S(=O)(=O)N(C)C)cc2)n1C,-19%
COC(=O)C1=C(C)N(Cc2ccc(OC)cc2)C(=O)/C1=C\c1ccco1,-11%
CCOC(=O)CC/C(=N\NC(N)=O)c1ccc(OC)c(Cl)c1,-6%
CSCCC(NS(=O)(=O)c1ccc(Cl)cc1)C(=O)OCC(=O)N1CCCc2ccccc21 (centres undefined),50%[activator]

# 2 of the compounds above, with tabs:
compound	VDR inhibitor
COC(=O)C1=C(C)N(Cc2ccc(OC)cc2)C(=O)/C1=C\c1ccco1	-11%
CCOC(=O)CC/C(=N\NC(N)=O)c1ccc(OC)c(Cl)c1	-6%

# Of the compounds above, three contain a thiophene ring, fused or not:
SMILES,VDR inhibitor
O=C(NCCc1ccc(Cl)cc1)c1ccc(Br)s1,-19%
CCOCCCn1c(SCC(=O)NCCCOC)nc2c(sc3ccccc32)c1=O,-3%
CC(=O)c1sc2nc(-c3cccs3)ccc2c1N,-3%

# Part of the list above in order of molecular weight, highest first.
SMILES,VDR inhibitor
CSCCC(NS(=O)(=O)c1ccc(Cl)cc1)C(=O)OCC(=O)N1CCCc2ccccc21 (centres undefined),50%[activator]
COc1ccc(C(=O)Cn2nc(CNc3ccc(Br)cc3)[n+]3c2CCCCC3)cc1,-27%
Cc1cc(C(=O)COC(=O)c2ccc(N)c([N+](=O)[O-])c2)c(C)n1Cc1ccc2c(c1)OCO2,-9%
Cc1c(S(=O)(=O)c2cccc(Cl)c2)nnn1-c1cccc(C(F)(F)F)c1,5%
COC(=O)C1=C(C)N(Cc2ccc(OC)cc2)C(=O)/C1=C\c1ccco1,-11%

# Screening results from PubChem BioAssay.
